# Compound activity: PubChem, ICCB-Longwood Screening Facility, Harvard Medical School
# Choline anaer gr: growth inhibitors of anaerobic choline-fed gram-negatives, minimal medium, absorbance | Gram-negative bacterium anaerobic choline minimal medium; active compounds read low; many inactives read as strong as hits in the columns shown | 55,000 tested, 0.2% active | calls only;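 active = growth z-score on choline under -2 at 7 or 20 h with little or no fall on glycerol, limits in tiers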;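 also: stock transfer was 300 nL into about 50 µL; the organism is E. coli; final concentration not given here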
# Choline anaer gr early: further read-out of Choline anaer gr, marked with its call; z-score; measured here: choline growth z-score, timepoint 1;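 score of optical density at 7 h as mean of two plates; lower means less growth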
# Starred values were filed as active, the others as inactive; i = inactive; & = joins results of further samples. Only part of the results is shown; the hit share may differ from the screen's.
SMILES,Choline anaer gr,Choline anaer gr early
CCOC(=O)c1c(S(=O)(=O)NCC(=O)NC2CCCCC2)c(C)n(CC)c1C,i,-0.87
O=C(Cn1nc2c3ccc(Cl)cc3ncn2c1=O)NC1CCCC1,i,-0.05
CC(C)C(=O)NCCc1csc(C2CCN(C(=O)c3ccsc3)CC2)n1,i,0.01
CC(C)c1nnc2ccc(NC3CC3)nn12,i,-0.4
COc1cc(OC)c(NC(=O)N2CCCC2c2cc(C)on2)cc1Cl (stereo unspecified),i,-0.84
CCCN1CCN(CCCNC(=O)CCC(=O)N2Cc3cccc(OC)c3Oc3ncccc32)CC1,i,-0.94
CN1CCN2c3ncccc3Cc3ccccc3C2C1 (stereo unspecified),i,-0.31&-0.55
Cc1nc(-c2ccc(C)c(-n3cc(C(=O)Nc4ccc(Cl)cc4)c(C)n3)c2)no1,i,0.23
CN(C)c1ccc(NS(=O)(=O)C2CCS(=O)(=O)C2)cc1 (stereo unspecified),i,0.48
CCOc1ccccc1NC(=O)c1ccc(-c2cccc(C)c2)nc1,i,0.57
Cc1cc(C)c2c(n1)sc1c(=O)n(CC(=O)Nc3cc(F)ccc3F)cnc12,i,0.19
O=C1CCC(N2C(=O)c3ccccc3C2=O)C(=O)N1 (stereo unspecified),i,0.13&0.46&0.66&0.1
Cc1cn(CC(=O)O)c(=O)c2ccccc12,i,-0.41
CCOc1ccc(-c2csc(Cc3nc(-c4ccc5c(c4)OCO5)no3)n2)cc1,i,-0.23
Cc1cccc(-c2nc(Cn3nc(C)c4c(C)onc4c3=O)c(C)o2)c1,i,0.67
CCOc1ccccc1NC(=O)N1Cc2c(sc3c2CCN(C)C3)-n2cccc2C1CC (stereo unspecified),i,0.88
O=C(Nc1ccccc1)c1ccccc1OCc1nc(-c2ccccc2)no1,i,1.5
O=C(CCCc1nnc2c(=O)n(-c3ccc(Cl)cc3)ccn12)N1CCN(c2ccccn2)CC1,i,-0.22
CC(C)(C)C1CCc2c(sc3nc(CCC(=O)Nc4ccccc4)[nH]c(=O)c23)C1 (stereo unspecified),i,-0.8
Cc1cccc(Cn2cnc3c(oc4ccccc43)c2=O)c1,i,0.21
CCCC[C@H](C)C[C@H](O)/C=C/[C@H]1[C@H](O)CC(=O)[C@@H]1CCCC/C=C/C(=O)O,i,0.56
O=C(CN1C(=O)COc2ccccc2C1=O)c1ccc(Br)cc1,i,-1.8
Cc1noc(C)c1C1CCCN1S(C)(=O)=O (stereo unspecified),i,0.39
Cc1cccc(CN2CCCN(CC(=O)Nc3cc(Cl)ccc3C)S2(=O)=O)c1,i,1.5
O=C(Cn1nc2c(SC3CCCCC3)nccn2c1=O)Nc1ccc(Br)cc1F,i,-0.39
Cc1ccc(SCc2cc(=O)n3ccsc3n2)cc1,i,0.83
O=C(c1ccccc1-c1nc(-c2ccc(F)cc2)no1)N1CCc2ccccc21,i,0.73
Cn1cc(C(=O)Nc2cc(F)ccc2F)c2[nH]c(=O)n(-c3ccccc3)c(=O)c21,i,-0.97
Cc1nc(NCc2cccc(Br)c2)c2onc(-c3ccc(Cl)cc3)c2n1,i,1.2
CN(C)S(=O)(=O)c1ccc2c(c1)N(CC(=O)N1CCCC1)C(=O)C1CCCCN21 (stereo unspecified),i,0.32
Cc1sc(-c2cc(C(F)(F)F)on2)cc1S(=O)(=O)NC1CC1,i,0.92
CCS(=O)(=O)NCC(c1cccnc1)S(=O)(=O)c1ccc(F)c(C)c1 (stereo unspecified),i,-0.81
O=C1COc2ccccc2N1Cc1nc(Cn2nnc3ccccc3c2=O)no1,i,0.03
COc1ccc(S(=O)(=O)NCCc2c(C)[nH]c3c(Cl)cccc23)cc1C,i,0.09
COc1ccc(C(=O)OC2=C(C(=O)c3ccccc3)N(C)S(=O)(=O)c3ccccc32)cc1,i,0.99
Cc1[nH]c(C)c(S(=O)(=O)N2CCC(C(=O)Nc3ccc(F)c(Cl)c3)CC2)c1C(=O)N1CCCCC1,i,0.16
Cc1ccc(-c2nccc(Nc3ccc(C(=O)Nc4ccc5c(c4)OCCO5)cc3)n2)cc1,i,0.2
CCOc1ccc(-c2ccc(SCc3nc(-c4ccc(OC)cc4OC)no3)nn2)cc1,i,1
CCN1CCN(C(=O)CN(C)S(=O)(=O)c2cc3c(cc2Cl)NC(=O)CO3)CC1,i,-0.93
COc1cccc(C2C3=C(CC(c4ccccc4)CC3=O)Nc3onc(C)c32)c1OC (stereo unspecified),i,-0.37
CCn1c(=O)c(N2CCCC(C(=O)N3CCC(N4CCCCC4)CC3)C2)nc2ccccc21 (stereo unspecified),i,0.53
COc1ccc(NC(=O)C2CCCN(S(=O)(=O)c3cc(-c4noc(C)n4)ccc3Cl)C2)cc1OC (stereo unspecified),i,-0.43
CCc1ncc(C(=O)Nc2cccc(F)c2)c(C)n1,i,-1.8
O=C(Nc1ccc(N2CCOCC2)cc1)C1CCN(c2ncc(-c3ccccc3)cn2)CC1,i,-0.98
CCc1nc(-c2csc(S(=O)(=O)N3CCC(C(=O)NC(C)C)CC3)c2)no1,i,0.79
Cc1nc(-c2cc(S(=O)(=O)NCCCc3ccccc3)c(C)s2)sc1C,i,-0.55
Cc1ccc(NS(=O)(=O)c2c(C)noc2C)c(C)c1,i,-0.21
CCCNc1ncccc1-c1nc(-c2ccccc2)no1,i,0.18
O=c1c2ccccc2nc(SCc2ccccc2F)n1CC1COc2ccccc2O1 (stereo unspecified),i,2
CC(=O)N1CCOc2cc(S(=O)(=O)N3CCCC3c3cc(C)on3)ccc21 (stereo unspecified),i,0.09

# Carrying on:
SMILES,Choline anaer gr,Choline anaer gr early
O=S(=O)(Cc1nc(-c2ccc3c(c2)OCO3)no1)c1ccc(Cl)s1,i,0.84
O=C(CN1CCN(Cc2ccc(F)cc2Cl)C1=O)NC1CCCCC1,i,0.68
CC(=O)OC/C=C(C)/C=C/C=C(C)/C=C/C1=C(C)CCCC1(C)C,i,0.55
Cn1c(=O)n(C)c2cc(S(=O)(=O)Nc3ccc4c(c3)OCO4)ccc21,i,-1.5
Cc1ccc(-c2cc3n(n2)CCCN(S(=O)(=O)c2c(C)nn(C)c2C)C3)cc1C,i,0.51
Cc1cc(N2CCCC2)n2nc(CN3CCN(c4ccc(Cl)cc4)CC3)nc2n1,i,-0.37
Cc1nn(CCCC(=O)Nc2ccccc2Cl)c(=O)c2nn(-c3ccccc3)c(C)c12,i,0.87
Cc1cc(C)n2nc(NCc3ccccc3F)nc2n1,i,-0.39
COCCNC(=O)C1CCN(C(=O)c2cccn2-c2cccnc2)CC1,i,-0.21
CN(C)S(=O)(=O)c1ccc2nc(NC(=O)CN3C(=O)c4ccccc4C3=O)sc2c1,i,0.45
CCCCOc1ccc(-c2cc3c(N4CCN(c5ccccn5)CC4)nccn3n2)cc1,i,0.74
CCOc1ccc(CNC(=O)CSc2nc3ncccc3n3cccc23)cc1,i,1
COc1ccc(-c2nc(C(=O)N3CCCC3)nn2-c2ccccc2)cc1,i,-0.28
Cc1ccc(Cn2c(CNC(=O)Cc3ccccc3)nc3ccccc32)cc1,i,-0.1
COc1ccc(OC)c(C(O)CN2CCC(c3nc(C)no3)CC2)c1 (stereo unspecified),i,-0.2
CCOc1ccc(NC(=O)C2CCCN(S(=O)(=O)c3cc(-c4noc(C)n4)sc3C)C2)cc1 (stereo unspecified),i,0.65
c1cc(-c2nnc(C3CCC3)o2)ccn1,i,-1.1
OCCSc1n[nH]c2nc3ccccc3n12,i,0.27
O=C(c1nnc(-c2cc(S(=O)(=O)N3CCCC3)c[nH]2)o1)N1CCCC1,i,0.24
CCOc1ccc(NC(=O)Cn2nc(SCC)c(S(=O)(=O)c3ccc(OC)cc3)c2N)cc1,i,0.56
COc1ccc(-n2cc(C(=O)Nc3cccc4ncccc34)nn2)cc1,i,-0.55
Cc1n[nH]c(C)c1CCc1nc(-c2ccc(Cl)cc2)no1,i,-1.6
COc1ccc(N2C(=O)c3cc4ccsc4n3CC2(C)C(=O)NCc2ccccc2OC)c(OC)c1 (stereo unspecified),i,-0.49
CCS(=O)(=O)Nc1ccc(C(=O)N2CCCC(C(=O)NC3CCCCC3)C2)cc1 (stereo unspecified),i,0.71
CCN1CCN(c2cc(C(=O)O)c3cc(NS(=O)(=O)c4ccc(C(C)C)cc4)ccc3n2)CC1,i,0.03
CC1=C(C(=O)NCCCN2CC(C)CC(C)C2)C2(CCCCC2)OC1=O (stereo unspecified),i,-0.5
COC(=O)c1cn(Cc2ccc(F)cc2Cl)c2nc(C)ccc2c1=O,i,0.45
O=C(Cn1cnc2c(sc3ncccc32)c1=O)NCc1ccccc1,i,0.27
O=C(NC1CCCC1)C1CCCN(c2ccc3cc(S(=O)(=O)N4CCOCC4)ccc3n2)C1 (stereo unspecified),i,1.2
Cc1cc(-c2ccc(C)c(S(=O)(=O)NCC3CCCO3)c2)on1 (stereo unspecified),i,-0.09

# The closing 2 compounds of the section above lead into the next.
SMILES,Choline anaer gr,Choline anaer gr early
O=C(NC1CCCC1)C1CCCN(c2ccc3cc(S(=O)(=O)N4CCOCC4)ccc3n2)C1 (stereo unspecified),i,1.2
Cc1cc(-c2ccc(C)c(S(=O)(=O)NCC3CCCO3)c2)on1 (stereo unspecified),i,-0.09
CCn1c(=O)n(CC)c2cc(N3CCCCC3)c(NC(=O)Nc3ccc(OC)c(OC)c3)cc21,i,2.6
COc1ccc(CCC(=O)Nc2ccc3nc(NS(C)(=O)=O)sc3c2)cc1,i,0.58
COc1ccc(COc2ccc(=O)n(-c3ccc(C(=O)Nc4cc(OC)ccc4OC)cc3)n2)cc1,i,0.27
CCCCc1nnc(NC(=O)CSCc2cc(=O)n3oc(C)cc3n2)s1,i,-0.63
Cc1onc(-c2ccccn2)c1C(=O)NCCc1c[nH]c2ccc(Cl)cc12,i,1.9
Fc1ccc(CNC2=NCCNC23CCCCC3)cc1,i,0.32
COc1ccc(NC(=O)NCCn2nnc3cc(S(=O)(=O)N4CCCC4)ccc32)cc1OC,i,0.12
Cc1ccc2c(c1)sc1nc(C)c(S(=O)(=O)Nc3ccc(F)cc3C)c(=O)n12,i,0.71
CCc1ccc(NC(=O)Nc2ccc(-c3cc4ccccc4[nH]3)cc2)cc1,i,-0.22
C=CCN1CC(c2nc3ccccc3n2C)CC1=O (stereo unspecified),i,-0.44
CC(C)c1nnc(N2C(=O)c3oc4ccccc4c(=O)c3C2c2cccnc2)s1 (stereo unspecified),i,0.52
Cc1cc(C(=O)N2CCN(C)CC2)c(C)n1CCN1CCCC1,i,0.6
COc1ccc(-c2nc(CCNC(=O)COc3ccccc3OC)cs2)cc1,i,0.49
Cc1nc(CN2C(=O)COc3ccc(S(=O)(=O)N4CCCC4)cc32)no1,i,-1
CN1C[C@H]2c3ccccc3Oc3ccc(Cl)cc3[C@@H]2C1,i,0.83
O=C(CCC(=O)N1CCCN(c2nc3cccnc3s2)CC1)NCCC1=CCCCC1,i,0.55
O=C(Nc1ccc2c(c1)OCO2)Nc1cc(NC(=O)c2ccc(F)cc2)ccc1N1CCCC1,i,-1.1
COc1ccc(C(=O)Nc2ccc3c(c2)nc(CCc2ccccc2)n3C)c(OC)c1,i,0.43
Cc1oc2ncnc(OCC(=O)N3CCN(c4cccc(Cl)c4)CC3)c2c1C,i,-1.6
O=C(Cn1c2ncccc2c(=O)n1-c1ccccc1)Nc1ccc2c(c1)OCO2,i,1.5
COc1cc(OC)c(NC(=O)c2cc(-c3ccccn3)n[nH]2)cc1Cl,i,0.17
O=C(NCCc1c[nH]c2ccc(Cl)cc12)C1CCN(c2ccncc2)CC1,i,-0.3
COCCCn1c(SCc2ccccc2)nc2c(-c3ccccc3)cn(C)c2c1=O,i,2.1
CC(=O)NCCNC(=O)CCc1nc2sc3c(c2c(=O)[nH]1)CCC(C)C3 (stereo unspecified),i,0.35
Cc1ccc(-n2nnc(C(=O)OCc3ccc(F)cc3)c2C)cc1F,i,0.42
COCCn1c(C)nc2ccccc21,i,-0.34
O=C(Cn1nc(C(=O)N2CCCC2)c2ccccc21)NC1CCCC1,i,-0.37
CCOC(=O)c1c(C)c(CCC(=O)NC2CCN(Cc3ccccc3)CC2)n(C)c1C,i,-0.24
O=C(Nc1ccc2c(c1)OCCO2)c1ccc(S(=O)(=O)c2ccc(Br)cc2)nc1,i,1.4
Cc1ccc(Cn2cnc3c(oc4ccccc43)c2=O)cc1,i,-0.28
O=C(C1=COCCO1)N1CCN(c2nc3c(Cl)cccc3s2)CC1,i,1.2
O=C(NCCCN1CCOCC1)C1CCN(c2cncnc2N2CCCC2)CC1,i,-0.56
Cc1nnc(NC(=O)CSc2nnc3ccc(-c4ccc5c(c4)OCO5)nn23)s1,i,-0.1

# Grouped by structure: the entries above with two or more sulfur atoms
SMILES,Choline anaer gr,Choline anaer gr early
CC(C)C(=O)NCCc1csc(C2CCN(C(=O)c3ccsc3)CC2)n1,i,0.01
CN(C)c1ccc(NS(=O)(=O)C2CCS(=O)(=O)C2)cc1 (stereo unspecified),i,0.48
Cc1ccc(SCc2cc(=O)n3ccsc3n2)cc1,i,0.83
Cc1sc(-c2cc(C(F)(F)F)on2)cc1S(=O)(=O)NC1CC1,i,0.92
CCS(=O)(=O)NCC(c1cccnc1)S(=O)(=O)c1ccc(F)c(C)c1 (stereo unspecified),i,-0.81
CCc1nc(-c2csc(S(=O)(=O)N3CCC(C(=O)NC(C)C)CC3)c2)no1,i,0.79
Cc1nc(-c2cc(S(=O)(=O)NCCCc3ccccc3)c(C)s2)sc1C,i,-0.55
O=S(=O)(Cc1nc(-c2ccc3c(c2)OCO3)no1)c1ccc(Cl)s1,i,0.84
CN(C)S(=O)(=O)c1ccc2nc(NC(=O)CN3C(=O)c4ccccc4C3=O)sc2c1,i,0.45
CCOc1ccc(NC(=O)C2CCCN(S(=O)(=O)c3cc(-c4noc(C)n4)sc3C)C2)cc1 (stereo unspecified),i,0.65
CCOc1ccc(NC(=O)Cn2nc(SCC)c(S(=O)(=O)c3ccc(OC)cc3)c2N)cc1,i,0.56
COc1ccc(CCC(=O)Nc2ccc3nc(NS(C)(=O)=O)sc3c2)cc1,i,0.58
CCCCc1nnc(NC(=O)CSCc2cc(=O)n3oc(C)cc3n2)s1,i,-0.63
Cc1ccc2c(c1)sc1nc(C)c(S(=O)(=O)Nc3ccc(F)cc3C)c(=O)n12,i,0.71
Cc1nnc(NC(=O)CSc2nnc3ccc(-c4ccc5c(c4)OCO5)nn23)s1,i,-0.1
